Screening data from PubChem BioAssay.
ugtP null kill – compounds lethal to S. aureus RN4220 ugtP deletion mutant; growth inhibition, % (concentration not given with the values); AID 1259309; OD600 growth, 16 h; some inactives read as strong as hits; 330,000 compounds, 0.54% hits;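 active = z-score under -3 and OD600 up to 0.15 on both plates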;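 also: plate controls were untreated wells for no effect and antibiotic for full effect; wells of about 80 µL received 100 nL stock; the first replicate is given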
Bead autofluor – counter-screen for toxin protease inhibitors: compound fluorescence | compound autofluorescence counterscreen, microsphere flow cytometry; stronger effect = higher value | fluorescence intensity (no concentration beside the values) | 360,000 compounds, 3.1% hits | AID 624483;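 active = at least 3 SD above the mean of all compounds, about 16000 in these data; inconclusive = too few beads counted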;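 also: 100 nL of 1 mM stock went into each well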
PrP UTR inh – inhibition of PrP 5' UTR reporter expression; cell-based PrP 5' UTR mRNA reporter, plate reader; inhibition, % (no concentration beside the values); 340,000 compounds, 0.35% hits; AID 488862;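 active = every replicate at 50% or more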;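 also: 0 = median of the neutral control wells; tested in H4 reporter cells; numbers are from one replicate; inactives centre near -14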
BJeLR lethal – BJeLR cell viability loss. BJeLR (HRASV12) viability, CellTiter-Glo ATP luminescence, 48 h; reference of the scale not given here. inhibition, % (no concentration beside the values). 300,000 compounds, 0.17% hits;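 active = replicate mean above 50%; inconclusive = above 50% but judged a plate artefact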;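 also: 50 nL library stock added to about 25 µL; numbers are from one replicate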
Mtb hypoxia rep – reduces hypoxia-regulated biosensor signal in M. tuberculosis; M. tuberculosis hypoxia-regulated fluorescent reporter, fluorescence; fluorescence inhibition, % (no concentration beside the values); 300,000 compounds, 0.1% hits; AID 1159583;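 active = 35 to 45% if threefold the growth effect, above 45% if 1.5-fold the growth effect; inactive = the rest, general growth blockers included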;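 also: wells of about 50 µL received 100 nL stock; 0% = vehicle wells and 100% = reference inhibitor wells; whole bacteria with a GFP reporter of the hypoxia response; strong numbers were not always called active; many hits fall short of the cut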
Sa RN4220 lethal – kills Staphylococcus aureus RN4220. AID 1259311. 330,000 compounds, 0.33% hits. S. aureus RN4220 growth, OD600, 16 h. inhibition, % (no concentration beside the values);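 active = z-score of -3 or lower and OD600 up to 0.18 on both plates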;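 also: plate controls were untreated cells for no effect and reference antibiotic for full effect; stock transfer was 100 nL into about 80 µL; one replicate is shown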
Mtb hypoxia rep growth – also measured in Mtb hypoxia rep; calls as there; growth inhibition, %; measured here: M. tuberculosis growth (absorbance);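 0% = vehicle and 100% = reference antibiotic; read after six days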
Numbers without * were called inactive; ? = inconclusive; · = no result given. Rows are unselected; overall some 4% were active at least once.

SMILES | ugtP null kill | Bead autofluor | PrP UTR inh | BJeLR lethal | Mtb hypoxia rep | Mtb hypoxia rep growth | Sa RN4220 lethal
O=C1N=NC2=C1c1c3ccccc3c(O)n1CC2 | 7 | 3043 | 2 | -18 | 15 | 7 | 6.7
Cc1nc(-c2ccccc2O)n(-c2ccccc2)n1 | -2 | 2895 | -33 | 4 | 8 | 12 | -4.2
OCCCNc1c2ccccc2nc2ccccc12 | 0 | 2984 | · | 26 | 6 | -5 | 1.0
Cc1ccnc(NC(=O)c2ccc(Cl)c(NC(=O)c3ccccc3C)c2)c1 | 7 | 3991 | -8 | 3 | 6 | 14 | 4.3
CCOC(=O)c1cnc2ccc(OCC)cc2c1NCCN1CCOCC1 | 1 | 4923 | -17 | -2 | 5 | -1 | 1.8
Cc1cc(N2C(=O)C3CCC(c4ccccc4)CC3C2=O)no1 (stereo not given) | -4 | 2588 | -16 | -3 | 11 | 7 | 5.0
Cc1c(Cl)cccc1NC(=S)N1CCN(Cc2ccccc2)CC1 | 1 | 23770* | -7 | -4 | 17 | 10 | 0.4
CCOC(=O)NC(C)N1C(=O)C2C3C=CC(C3)C2C1=O (stereo not given) | 5 | 4430 | -11 | -10 | 10 | 12 | 3.8
CCOC(=O)Cn1cnc(-c2ccc([N+](=O)[O-])cc2)c1 | 8 | 2000 | -32 | 8 | 7 | 14 | -0.9
CCCN(CCC)S(=O)(=O)c1ccc(NS(C)(=O)=O)cc1 | 0 | 3144 | -23 | 5 | -7 | 1 | 1.6
NCCCC[C@H](N)c1nnc([C@H](CC(=O)O)NC(=O)C2CCNCC2)o1 | · | 2857 | -22 | -15 | · | · | ·
COc1cc(CNC2CCCC2)cc(OC)c1OC | -1 | 9419 | -4 | -1 | 5 | -5 | 0.9
Cn1cnc(S(=O)(=O)Nc2ccc(Cl)c(C(F)(F)F)c2)c1 | -1 | 4043 | 6 | 3 | -3 | -3 | 3.3
O=C1c2ccccc2C(Nc2ccc(S(=O)(=O)N3CCOCC3)cc2)N1c1ccccn1 (stereo not given) | -6 | 4674 | -13 | -8 | -2 | 9 | -12
O=C(O)C1C2CC3C(OC(=O)C31)C2Cl (stereo not given) | 2 | 2098 | -22 | -2 | 3 | 8 | -3.8
CCOC(=O)c1c(C)[nH]c(N=Nc2ccccc2C)c1C | 85 | 8580 | -35 | 1 | 6 | 6 | 28
CC(=O)N1CCN(S(=O)(=O)c2cccc(C(=O)OCc3ccc(C(C)(C)C)cc3)c2)CC1 | -7 | 5221 | 10 | · | -8 | -8 | -0.1
Cc1ccc(-c2nc(N)c3c(-c4ccc(C)cc4)nn(C(C)(C)C)c3n2)cc1 | 6 | 2519 | -3 | -15 | 13 | 11 | -1.9
COc1cc(Cl)c(C)cc1NC(=O)CSc1nnc(CN2CCCC2)o1 | -1 | 3594 | -16 | · | 7 | 6 | 0.9
COc1ccc(Nc2ncnc3ccccc23)cc1 | -9 | 2909 | -38 | -3 | 13 | 4 | -11
COC(=O)C1C2c3ccccc3OC1(C)N=c1sc(=Cc3cnn(C)c3)c(=O)n12 (stereo not given) | 5 | · | · | · | -2 | 1 | -6.0
O=C(Cn1cncn1)c1ccc(F)cc1F | 3 | 2537 | -11 | -6 | 5 | -4 | 3.9
CCCCOC(=O)c1ccc(NC(=O)c2cnccn2)cc1 | -9 | 3368 | -11 | 14 | 13 | 7 | 7.6
Cn1c(CNC(=O)c2ccco2)nnc1SCC(=O)N1CCN(c2ccccc2F)CC1 | 0 | 4250 | 10 | 3 | -4 | -2 | 2.9
COc1ccccc1CNC(=O)COC(=O)c1cccc(S(=O)(=O)N2CCCC2)c1 | 4 | 5713 | -31 | -1 | 11 | 8 | 2.5

An excerpt from above, reduced to PrP UTR inh, ugtP null kill and Sa RN4220 lethal:
canonical_smiles	PrP UTR inh	ugtP null kill	Sa RN4220 lethal
O=C1N=NC2=C1c1c3ccccc3c(O)n1CC2	2	7	6.7
Cc1nc(-c2ccccc2O)n(-c2ccccc2)n1	-33	-2	-4.2
OCCCNc1c2ccccc2nc2ccccc12	·	0	1.0

Arranged by length of the SMILES (ascending): 3 of the compounds above.
SMILES | ugtP null kill | Bead autofluor | PrP UTR inh | BJeLR lethal | Mtb hypoxia rep | Mtb hypoxia rep growth | Sa RN4220 lethal
COc1ccc(Nc2ncnc3ccccc23)cc1 | -9 | 2909 | -38 | -3 | 13 | 4 | -11
CCOC(=O)c1c(C)[nH]c(N=Nc2ccccc2C)c1C | 85 | 8580 | -35 | 1 | 6 | 6 | 28
CCOC(=O)Cn1cnc(-c2ccc([N+](=O)[O-])cc2)c1 | 8 | 2000 | -32 | 8 | 7 | 14 | -0.9

Back to the main list, starting five compounds before the break.
SMILES | ugtP null kill | Bead autofluor | PrP UTR inh | BJeLR lethal | Mtb hypoxia rep | Mtb hypoxia rep growth | Sa RN4220 lethal
COC(=O)C1C2c3ccccc3OC1(C)N=c1sc(=Cc3cnn(C)c3)c(=O)n12 (stereo not given) | 5 | · | · | · | -2 | 1 | -6.0
O=C(Cn1cncn1)c1ccc(F)cc1F | 3 | 2537 | -11 | -6 | 5 | -4 | 3.9
CCCCOC(=O)c1ccc(NC(=O)c2cnccn2)cc1 | -9 | 3368 | -11 | 14 | 13 | 7 | 7.6
Cn1c(CNC(=O)c2ccco2)nnc1SCC(=O)N1CCN(c2ccccc2F)CC1 | 0 | 4250 | 10 | 3 | -4 | -2 | 2.9
COc1ccccc1CNC(=O)COC(=O)c1cccc(S(=O)(=O)N2CCCC2)c1 | 4 | 5713 | -31 | -1 | 11 | 8 | 2.5
O=C(c1ccco1)N(Cc1ccc(Cl)cc1)C1CCS(=O)(=O)C1 (stereo not given) | 3 | 4253 | -10 | -3 | -7 | -2 | -0.8
COc1ccc(NC(=O)NNC(=O)c2ccc(-c3ccccc3)cc2)cc1 | 1 | 5307 | -8 | -20 | 4 | 6 | 6.5
CC(C)C(NS(=O)(=O)c1cccc2nsnc12)C(=O)NCCC1=CCCCC1 (stereo not given) | 11 | 4492 | -21 | -13 | 9 | 2 | 5.5
O=C(O)CCC(=O)N1CN2CN(C(=O)CCC(=O)O)CC([N+](=O)[O-])(C2)C1 | 6 | 5289 | -8 | -4 | -1 | -13 | 2.1
CC(C)c1ccc(S(=O)(=O)N2CCC3(CC2)OCCO3)cc1 | · | 6395 | -4 | -2 | · | · | ·
CC(=O)C1=C(O)CC(c2ccccc2)CC1=NCCc1ccccc1 (stereo not given) | 1 | 8206 | -35 | -10 | 7 | 0 | 8.4
COC(=O)[C@@H]1C[C@@]2(O)[C@H](O)[C@H](O)[C@H](O)C[C@H]2N1C/C=C/c1ccccc1 | · | 3499 | -8 | -4 | · | · | ·
CCOc1cc2c(cc1OC)C(c1cccc([N+](=O)[O-])c1)NCC2 (stereo not given) | 1 | 4151 | -11 | 4 | 1 | 5 | -2.8
COc1ccc(C=NNc2cc(C)nc(N)n2)cc1 | 6 | · | · | · | 11 | 1 | -0.2
Nc1ccc(-c2nc3ncccc3o2)cc1 | 5 | 3930 | -15 | -10 | 20 | 10 | 1.5
O=C(NCC(c1ccco1)N1CCN(c2ccc(F)cc2)CC1)OCc1ccccc1 (stereo not given) | 30 | 2522 | -16 | -3 | 1 | 2 | 0.7
Cc1nc2cc(NC(=O)CS(=O)(=O)c3ccccc3)ccc2s1 | 9 | ? | -26 | -19 | 13 | 4 | 5.2
CCC1=C(OC(=O)N(CC)CC)N2C(=O)OC(=NCCc3c[nH]c4ccccc34)[C@]2(C)[C@H]2C1=CC[C@H]1C(=O)NC(=O)[C@H]12 | · | 4315 | 3 | -12 | · | · | ·
CC1(C)Cc2c(sc(NC(=O)c3ccco3)c2C#N)CO1 | 0 | 6078 | -33 | -12 | 12 | 18 | 2.6
CC1CCN(c2ccccc2N)CC1 | -1 | 9219 | -2 | -11 | 5 | 14 | 3.0
O=C(COC(=O)c1ccccc1SCC(=O)NC1CCCCC1)NC1CCCCC1 | 6 | 15676 | -2 | 2 | -3 | -4 | 1.3
CCN(CC)C(=O)c1sc(NC(=O)C(Sc2ccccc2)c2ccccc2)c(C(=O)OC(C)C)c1C (stereo not given) | 10 | 2422 | -25 | -10 | · | · | -5.4
CCOC(=O)c1ccc(NC(=O)N2CCN(c3cccc(OC)c3)CC2)cc1 | 1 | 5065 | -10 | -1 | 8 | 3 | -2.1
Cc1ccc(C(C)C)c(OCC(O)CN2CC(C)OC(C)C2)c1 (stereo not given) | 3 | 2713 | -23 | 8 | 9 | 2 | 3.3
COc1cc(/C=C/C(=O)N2CC(C)OC(C)C2)cc(OC)c1OC (stereo not given) | 4 | 3896 | -19 | -19 | -5 | 2 | -7.7
Cc1cc(OCC(=O)Nc2c(C)n(C)n(-c3ccccc3)c2=O)ccc1[N+](=O)[O-] | 13 | 4622 | -8 | -8 | -2 | 1 | 1.2
O=C(CN1CCN(c2ccccc2F)CC1)NCc1ccccc1 | 10 | 3812 | -2 | -8 | 11 | 19 | 3.6
Cc1cccc(-n2cnc(C(=O)N/N=C\c3ccc(Br)cc3)c2)n1 | · | 2256 | -37 | -3 | · | · | ·
Cc1ccc(OCC(=O)OCC(=O)c2ccccc2)cc1C | -1 | 5889 | -1 | -5 | -7 | 3 | 0.0
O=C(O)c1ccc(C=NN2CCN(Cc3ccccc3)CC2)cc1 | -1 | · | · | · | -5 | 3 | -2.3

The listing continues:
SMILES | ugtP null kill | Bead autofluor | PrP UTR inh | BJeLR lethal | Mtb hypoxia rep | Mtb hypoxia rep growth | Sa RN4220 lethal
COc1ccc(CCCc2nnc(SCC(=O)Nc3ccc(C)c(C)c3)o2)cc1 | 19 | 11215 | -17 | -4 | 6 | 0 | -4.6
Cc1nc(NC(=O)CSc2nnnn2C)sc1C | 15 | 3178 | -45 | 7 | 6 | 4 | 5.6
Cc1noc(C)c1C(=O)Nc1nccs1 | 4 | 5561 | -17 | -5 | 6 | -9 | -2.0
CCc1nc2c(cnn2-c2ccc(Cl)cc2)c(=O)n1-c1ccc2c(c1)OCCO2 | 0 | 4062 | -7 | -1 | 5 | 8 | 0.6
Cc1ccc(-c2csc3ncnc(Sc4nnc(CN5CCCCCC5=O)o4)c23)cc1 | 6 | 16668* | -8 | -2 | 9 | 13 | 3.2
CCOc1ccc(C(=O)Oc2cc(C)[nH]c(=O)c2[N+](=O)[O-])cc1 | -3 | 5728 | -14 | 3 | 1 | 5 | 1.0
Cc1ccc(C(=O)NNC(=O)c2ccc(SCC3CCCO3)c([N+](=O)[O-])c2)cc1 (stereo not given) | -8 | 10655 | · | 1 | -6 | 5 | -2.4
CCN1C(=NCCOC)N[C@@H](c2cccc(F)c2)C(C(=O)OC)=C1C | · | 3263 | -16 | 4 | · | · | ·
CC(C)C(=O)Nc1ccc(Br)cc1Cl | 2 | 2507 | -11 | 4 | 1 | 1 | 1.3
COc1ccc(CN2C(=O)c3cccnc3C2Nc2ccc(C)cc2)cc1 (stereo not given) | 5 | 3688 | -17 | -6 | 6 | 10 | 2.8
COC(=O)c1cc(S(=O)(=O)N2CCN(c3ccc(OC)cc3)CC2)cn1C | 2 | 6047 | 1 | 2 | 7 | 13 | 2.9
Cc1c(C(=O)O)cnc2cc(-c3ccc(Cl)cc3)nn12 | 10 | 6412 | -20 | 10 | 2 | 2 | 7.0
CC(C(=O)Nc1nccs1)c1ccc([N+](=O)[O-])cc1 (stereo not given) | -6 | 2145 | -17 | -4 | 2 | 11 | -7.2
CN(C)S(=O)(=O)c1ccc(S(=O)(=O)N2CCCC2)cc1 | 0 | 3864 | -15 | -8 | 4 | 2 | 1.9
Cc1snc(SCc2c(F)cccc2Cl)c1C#N | 4 | 3081 | -22 | -10 | 8 | 8 | 0.7
CCn1c(COc2ccc(=O)n(-c3ccccc3)n2)nnc1SCC(=O)OC | 8 | 3661 | -1 | -4 | 1 | -30 | 2.9
CS(=O)(=O)N(CC(=O)Nc1ccccc1Cl)c1ccc(Cl)cc1 | 5 | 4318 | 0 | -11 | 12 | -1 | 0.9
Cc1c(/C(O)=C2\C(=O)C(=O)N(CCCN(C)C)C2c2ccccc2)cnn1-c1ccccc1 (stereo not given) | 0 | 3408 | -14 | · | 12 | 1 | 5.8

Two compounds drawn at random from those above, as already listed:
SMILES | ugtP null kill | Bead autofluor | PrP UTR inh | BJeLR lethal | Mtb hypoxia rep | Mtb hypoxia rep growth | Sa RN4220 lethal
COc1ccc(CN2C(=O)c3cccnc3C2Nc2ccc(C)cc2)cc1 (stereo not given) | 5 | 3688 | -17 | -6 | 6 | 10 | 2.8
CCN(CC)C(=O)c1sc(NC(=O)C(Sc2ccccc2)c2ccccc2)c(C(=O)OC(C)C)c1C (stereo not given) | 10 | 2422 | -25 | -10 | · | · | -5.4
